High-throughput results (PubChem)
RanGTP-Impb inh – inhibitors of RanGTP-importin-beta interaction, primary screen, biochemical, FRET, CFP-Ran, YFP-importin-beta, homogeneous | Ran GTPase (GTP-bound) - importin-beta complex | cell-free CFP-Ran/YFP-importin-beta FRET ratio | inhibition, % (concentration not given with the values) | actives 1.1% (n = 300,000);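 active = most replicates above 15%; inconclusive = exactly half above 15%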;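 also: 0% = DMSO wells and 100% = Ran loaded with GDP instead of GTP; wells of about 40 µL received 100 nL stock; the first replicate is given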
T cruzi inh – inhibitors of intracellular T. cruzi growth, primary screen, luminescence, NIH3T3 host cells | AID 1885, 2009 | inhibition, % (no concentration beside the values) | actives 1.4% (n = 300,000) | T. cruzi beta-gal in NIH3T3, 90 h;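 active = mean inhibition across valid replicates above about 55%, limit read from the data; inconclusive = mean below that limit but half or more replicates reach it; inactive = mean below it, under half of replicates reach it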;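 also: signal also drops with host cell toxicity which is not excluded here; 0% = plate median of DMSO wells and 100% = zero luminescence signal; higher percent means less beta-gal luminescence so fewer parasites; stock transfer was 50 nL into about 50 µL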
A1 inh – caspase 3/7 activation in MEF A1-2A-BIM cells, primary screen, A1 inhibitor project, cell-based, luminescence, HTS. caspase activation, % (concentration not given with the values). actives 0.066% (n = 330,000). Caspase-Glo 3/7 luminescence, 3 h; percent of clofoctol response, vehicle zero. AID 2462, 2010;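 active = over half of replicate activation scores above 10%, or exactly half above 10 with the replicate mean above 10; inconclusive = replicate mean below 10 yet half the replicates above 10; inactive = over half of replicates below 10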;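 also: wells of about 30 µL received 50 nL stock; many hits fall short of the cut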
Beta apoptosis – inhibitors of cytokine-induced beta cell apoptosis, primary screen, luminescence | INS-1E cytokine-induced death, ATP luminescence, 48 h; percent of positive-control rescue, neutral wells zero | actives 0.8% (n = 300,000) | protection from apoptosis, % (concentration not given with the values) | AID 435005, 2010;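 active = all replicates at 75% or more, or half of them and the mean; inconclusive = half reach 75% but not the mean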;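 also: 0% = cytokine-treated negative control wells and 100% = positive control rescue; higher means more ATP so stronger rescue from cytokine killing; wells of about 40 µL received 100 nL stock; the first replicate is given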
Calb FLC – C. albicans growth inhibition with fluconazole, primary screen, CaCi-2 strain, Alamar Blue fluorescence | growth inhibition, % (no concentration beside the values) | C. albicans CaCi-2 (fluconazole-resistant clinical isolate) + fluconazole, 48 h | actives 0.57% (n = 300,000);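 active = most replicates above 75%; inconclusive = exactly half above 75%; inactive = most below 75%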;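 also: all wells also contain fluconazole at 8 µg/ml as a sub-toxic cotreatment; 0% = median of DMSO wells and 100% = median of geldanamycin control wells; wells of about 8 µL received 7.5 nL stock; the first replicate is given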
AF4-AF9 inh – inhibitors of AF4 peptide binding to AF9, primary screen, biochemical, AlphaScreen, biotin-AF4 peptide, FLAG-AF9, single point; actives 0.47% (n = 350,000); inhibition, % at 10 µM; Protein AF-9 (Homo sapiens), P42568; AID 651704, 2012;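 active = every replicate reaching a set inhibition limit, whatever the replicate mean, cut at about 25% in these data; inconclusive = mean inhibition reaches that limit but some replicates miss it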;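 also: 0% = plate neutral control median and 100% = total signal loss; the record names both 10 and 1 µM as test concentration; the first replicate is given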
Target sequence (P42568 whole entry, looked up): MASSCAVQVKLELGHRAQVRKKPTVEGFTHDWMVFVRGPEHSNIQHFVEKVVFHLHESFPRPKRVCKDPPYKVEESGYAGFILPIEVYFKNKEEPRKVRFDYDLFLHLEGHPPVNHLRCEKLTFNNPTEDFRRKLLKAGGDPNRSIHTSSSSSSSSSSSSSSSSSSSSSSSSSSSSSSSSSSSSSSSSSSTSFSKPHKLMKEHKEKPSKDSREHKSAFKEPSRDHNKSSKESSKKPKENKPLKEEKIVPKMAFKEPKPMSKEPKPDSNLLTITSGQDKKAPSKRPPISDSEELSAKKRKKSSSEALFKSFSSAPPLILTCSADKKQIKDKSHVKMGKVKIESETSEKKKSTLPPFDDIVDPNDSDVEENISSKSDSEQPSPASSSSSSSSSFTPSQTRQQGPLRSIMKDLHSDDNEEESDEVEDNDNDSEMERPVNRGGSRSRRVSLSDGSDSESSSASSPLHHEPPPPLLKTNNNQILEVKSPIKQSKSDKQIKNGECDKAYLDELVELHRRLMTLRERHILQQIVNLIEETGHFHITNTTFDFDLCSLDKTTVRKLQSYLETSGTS
Ecoli rRNA inh – reduced GFP signal of wild-type E. coli, primary screen, bacterial rRNA inhibitor project, GFP/RFP fluorescence, OD600, single point; GFP signal change (wild-type ribosome), % (no concentration beside the values); actives 1.6% (n = 350,000); E. coli WT GFP vs humanized-ribosome RFP mutants, 24 h; active compounds read low; DMSO median 0, no signal -100;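 active = significant combined selectivity score with lowered wild-type GFP, culture density cut under 30%, mutant RFP and density less affected; inactive = any of these conditions unmet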; also: one replicate is shown; some compounds called inactive have numbers as strong as hits
Vif A3G – inhibitors of Vif binding to APOBEC3G peptide, primary screen, biochemical, TR-FRET, GST-Vif 1-94, biotin-A3G peptide, dose response retest (AID 1117319); Virion infectivity factor (Human immunodeficiency virus type 1 group M subtype B (isolate …; TR-FRET GST-Vif / biotin-A3G peptide binding; higher % means a stronger effect; test concentration not given here; strong numbers were not always called active; inhibition, %; hits with a dose series show IC50 in µM; actives 0.57% (n = 260,000);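 active = above the screen mean plus three standard deviations and confirmed in dose response; inconclusive = results disagree or hit not tested in dose response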;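 also: Vif residues 1-94 fused to GST binding biotinylated APOBEC3G peptide 110-148; 0% = full assay without inhibitor and 100% = GST in place of GST-Vif; retest series ran down from 100 µM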
Ecoli rRNA inh OD600 – also measured in Ecoli rRNA inh; calls as there; OD600 change, %; measured here: OD600 growth;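 optical density of the mix in the first replicate; 0 = DMSO median and -100 = no signal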
Ecoli rRNA inh RFP – also measured in Ecoli rRNA inh; calls as there; RFP signal change, %; measured here: RFP humanized mutant strains;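 first replicate; 0 = DMSO median and -100 = no signal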
The depositor's hits bear a star. An excerpt; rates above refer to the full screens.

Screening CCOc1ccccc1NC(=O)Nc1ccc(Cl)cc1 returned RanGTP-Impb inh 1.1, T cruzi inh 33.7, A1 inh -2.4, Beta apoptosis -0.8, Calb FLC 5.5, AF4-AF9 inh -7.7 and Vif A3G -3.6%.
`Cc1cc(C)nc(SCc2nnc(SCC(=O)Nc3ccccc3C)n2Cc2ccco2)n1` gave RanGTP-Impb inh 2.4, T cruzi inh 3.2, A1 inh -0.7, Beta apoptosis -9.6, Calb FLC -0.4 and Vif A3G -1.8%.
`Nn1c(SCCOc2ccc(Cl)cc2)nnc1-c1cccnc1` gave RanGTP-Impb inh 1.0, T cruzi inh 3.6, A1 inh 0.0, Beta apoptosis -1.1, Calb FLC 20.1 and AF4-AF9 inh 3.3.
Screening CC(O)CNC(=O)c1ccc(-c2nn(C)c(=O)c3ccccc23)cc1 (stereo unspecified) returned RanGTP-Impb inh -2.6, T cruzi inh -5.3, A1 inh -0.5, Beta apoptosis -9.1, Calb FLC -4.3, Ecoli rRNA inh 2.6, Vif A3G 2.1%, Ecoli rRNA inh OD600 3.1 and Ecoli rRNA inh RFP -2.2.
Cc1ccc(C)c(C2C(=O)c3ccccc3C2=O)c1 was read as RanGTP-Impb inh -1.4, T cruzi inh 0.0, A1 inh -0.4, Beta apoptosis -2.0, Calb FLC 8.5, AF4-AF9 inh -0.6, Ecoli rRNA inh -4.9, Ecoli rRNA inh OD600 -3.5 and Ecoli rRNA inh RFP -2.2.
S=C(NC1CCCCC1)NN1CCOCC1 was read as RanGTP-Impb inh inconclusive, T cruzi inh -13.9, A1 inh 0.8, Beta apoptosis 0.1, Calb FLC -0.3, AF4-AF9 inh -0.8, Ecoli rRNA inh 17.6, Vif A3G -7.3%, Ecoli rRNA inh OD600 18.2 and Ecoli rRNA inh RFP 1.0.
For O=C(O)CCC(=O)Nc1ccccc1C(=O)NCc1ccco1 the results were RanGTP-Impb inh 0.1, T cruzi inh 2.5, A1 inh 0.5, Beta apoptosis 2.4 and Calb FLC 1.8.
For O=C(CCS(=O)(=O)c1cccc2nsnc12)N1CCN(C(=O)c2ccco2)CC1 the results were RanGTP-Impb inh -1.2, T cruzi inh -3.5, A1 inh -0.2, Beta apoptosis -2.2, Calb FLC 56.6* and Vif A3G 4.9%.
Screening Cc1[nH]c2ccccc2c1C(=O)C(=O)NCCCn1ccnc1 returned RanGTP-Impb inh 2.7, T cruzi inh 0.8, A1 inh -0.4, Beta apoptosis 0.5, Calb FLC -1.2, AF4-AF9 inh 0.5, Ecoli rRNA inh 10.9, Vif A3G 3.1%, Ecoli rRNA inh OD600 11.6 and Ecoli rRNA inh RFP 2.3.
O=C(COc1ccccc1[N+](=O)[O-])N/N=C/c1ccncc1 was read as RanGTP-Impb inh -1.7, T cruzi inh -7.9, A1 inh 0.9, Calb FLC -0.1, AF4-AF9 inh -1.6, Ecoli rRNA inh 10.0, Vif A3G -2.2%, Ecoli rRNA inh OD600 12.4 and Ecoli rRNA inh RFP 0.6.
`CCN(CC)C(=O)CSc1n[nH]c(=S)n1N` gave RanGTP-Impb inh 0.2, T cruzi inh -17.2, A1 inh 0.5, Beta apoptosis 7.4, Calb FLC -0.7, AF4-AF9 inh 1.8, Ecoli rRNA inh 11.0, Vif A3G 2.7%, Ecoli rRNA inh OD600 3.8 and Ecoli rRNA inh RFP -2.0.
Screening Cc1ccccc1C(=O)N1CCC(C(=O)Nc2ccc(S(=O)(=O)N3CCCC3)cc2)CC1 returned RanGTP-Impb inh 1.2, T cruzi inh -2.2, A1 inh 2.2, Beta apoptosis -17.5, Calb FLC -4.5 and Vif A3G 6.8%.
For C[C@]12C(=O)N(c3ccc(F)cc3)C(=O)N1[C@H]1c3ccccc3OC[C@@H]1[C@H]2c1ccccc1 the results were A1 inh 0.4, Beta apoptosis -0.8, AF4-AF9 inh -0.8, Ecoli rRNA inh 3.5, Ecoli rRNA inh OD600 1.1 and Ecoli rRNA inh RFP -11.7.
For Cc1ccsc1C(=O)Nc1cccc(S(=O)(=O)N(C)C)c1 the results were RanGTP-Impb inh 0.5, T cruzi inh 4.6, A1 inh -0.5, Beta apoptosis 4.5, Calb FLC -18.8 and Vif A3G inconclusive.
Cc1cc2cc3c(cc2nc1SCC(=O)N1CCN(C(=O)c2ccco2)CC1)OCO3 was read as RanGTP-Impb inh 3.2, T cruzi inh -10.0, A1 inh 0.2, Beta apoptosis -2.5 and Calb FLC -38.0.
For CC(C)[C@H](NC(=O)OCc1ccccc1)C(=O)OCC(=O)NC1(C#N)CCCC1 the results were RanGTP-Impb inh 6.5, T cruzi inh 0.1, A1 inh 0.5, Calb FLC 8.2, AF4-AF9 inh -2.6, Ecoli rRNA inh 10.5, Vif A3G 12.6%, Ecoli rRNA inh OD600 9.8 and Ecoli rRNA inh RFP -1.3.
CC(=O)Nc1ccc(NC(=O)CCC(=O)OCC(=O)c2ccc(F)cc2)cc1 was read as RanGTP-Impb inh 4.0, T cruzi inh -9.9, A1 inh -0.6, Beta apoptosis -5.6, Calb FLC 2.5, AF4-AF9 inh -1.1, Ecoli rRNA inh 12.6, Ecoli rRNA inh OD600 7.9 and Ecoli rRNA inh RFP -2.0.
Screening O=C(NCc1nc2ccccc2[nH]1)C1=C[C@H](c2coc3ccccc3c2=O)C[C@H](OCCCCO)O1 returned RanGTP-Impb inh 1.2, T cruzi inh 14.5, A1 inh 0.5, Beta apoptosis 2.8, Calb FLC -0.2 and AF4-AF9 inh 0.4.
Screening CCN(CC)CCNC(=O)C(C)c1nn(CC)c(=O)c2ccccc12 (stereo unspecified) returned RanGTP-Impb inh -0.4, T cruzi inh -3.3, A1 inh -0.4, Calb FLC -10.8, AF4-AF9 inh 7.0, Ecoli rRNA inh 13.4, Vif A3G 23.5%, Ecoli rRNA inh OD600 14.8 and Ecoli rRNA inh RFP -13.2.
Screening CCc1nnc(NC(=O)[C@@H](NC(=O)c2ccc(C(C)(C)C)cc2)C(C)C)s1 returned RanGTP-Impb inh 2.1, T cruzi inh -10.3, A1 inh 0.5, Beta apoptosis 2.9, Calb FLC -11.5, AF4-AF9 inh 2.6 and Vif A3G -3.5%.
Cc1cccc(OCC(O)Cn2c(NCc3cccnc3)nc3c2c(=O)[nH]c(=O)n3C)c1 (stereo unspecified) was read as RanGTP-Impb inh 5.4, T cruzi inh -6.0, A1 inh -0.1, Beta apoptosis 6.7, Calb FLC -0.3 and Vif A3G 5.1%.
`COc1ccc(S(=O)(=O)N(C)C2CCS(=O)(=O)C2)cc1OC` (stereo unspecified) gave RanGTP-Impb inh -3.3, T cruzi inh -10.0, A1 inh -0.8, Beta apoptosis -4.3, Calb FLC 3.7, Ecoli rRNA inh 9.0, Vif A3G 0.9%, Ecoli rRNA inh OD600 18.4 and Ecoli rRNA inh RFP -0.7.
`CC1(C)CC(=O)C(/C=N/n2cnc3ccccc3c2=O)=C(O)C1` gave RanGTP-Impb inh inconclusive, T cruzi inh -5.2, A1 inh 0.7, Beta apoptosis -1.4, Calb FLC -0.1 and Vif A3G -0.5%.
For COC(=O)c1sc(=S)n(-c2ccccc2OC)c1N the results were RanGTP-Impb inh inconclusive, T cruzi inh -1.4, A1 inh -0.4, Beta apoptosis -1.8, Calb FLC 10.0 and Vif A3G 1.0%.
For CCCCN1CC(=O)N2Cc3[nH]c4ccccc4c3C[C@H]2C1=O the results were RanGTP-Impb inh 1.0, T cruzi inh -11.8, A1 inh -0.5, Beta apoptosis -0.1, Calb FLC 7.8, AF4-AF9 inh 1.8, Ecoli rRNA inh -0.7, Vif A3G -4.4%, Ecoli rRNA inh OD600 1.0 and Ecoli rRNA inh RFP 2.4.
`Cc1cnc(NC(=O)CCCc2nc3ccccc3s2)s1` gave RanGTP-Impb inh 3.9, T cruzi inh -12.2, A1 inh 0.9, Beta apoptosis 12.9, Calb FLC 28.1 and Vif A3G -8.7%.
`Cc1ccc(S(=O)(=O)NNc2nc3ccccc3nc2C(F)(F)F)cc1` gave RanGTP-Impb inh -1.9, T cruzi inh -11.5, A1 inh 0.3, Beta apoptosis 1.6, Calb FLC -1.9 and Vif A3G 18.0%.
For O=C(CCS(=O)(=O)c1ccccc1Cl)NCCC1=CCCCC1 the results were RanGTP-Impb inh -2.7, T cruzi inh 0.1, A1 inh 0.7, Beta apoptosis -3.7, Calb FLC 0.6, AF4-AF9 inh -5.0, Ecoli rRNA inh -0.2, Ecoli rRNA inh OD600 3.4 and Ecoli rRNA inh RFP -0.2.
For COc1cccc(CNC(=O)CSCC(=O)Nc2cc(C)on2)c1 the results were RanGTP-Impb inh 0.9, T cruzi inh -14.2, A1 inh 1.0, Calb FLC -3.3, AF4-AF9 inh -3.0, Ecoli rRNA inh 6.2, Vif A3G 0.9%, Ecoli rRNA inh OD600 5.6 and Ecoli rRNA inh RFP 2.1.
CCc1nc2ccc(C(=O)NCCc3ccc(OC)c(OC)c3)cc2nc1CC was read as RanGTP-Impb inh 1.5, T cruzi inh 4.2, A1 inh -0.4, Beta apoptosis 5.0, Calb FLC 1.5, AF4-AF9 inh -11.5, Ecoli rRNA inh -6.6, Vif A3G 0.2%, Ecoli rRNA inh OD600 -6.2 and Ecoli rRNA inh RFP -1.7.
Screening CCOc1ccc(OCC)c(S(=O)(=O)NC2CC(C)(C)NC(C)(C)C2)c1 returned RanGTP-Impb inh -3.1, T cruzi inh -24.0, A1 inh 0.2, Beta apoptosis -12.3, Calb FLC 8.6, AF4-AF9 inh 0.3, Ecoli rRNA inh 7.1, Vif A3G -4.1%, Ecoli rRNA inh OD600 -0.2 and Ecoli rRNA inh RFP 0.4.
Clc1ncccc1-c1nc2ccccc2s1 was read as RanGTP-Impb inh -0.9, T cruzi inh 5.8, A1 inh -7.5, Beta apoptosis 0.4, Calb FLC 1.5, AF4-AF9 inh -3.7, Ecoli rRNA inh -8.8, Vif A3G 1.6%, Ecoli rRNA inh OD600 -15.6 and Ecoli rRNA inh RFP -3.7.
